From PubChem BioAssay
NPYLR7 agonist = mosquito NPYLR7 agonism; HEK293T NPYLR7/Galpha15, GCaMP6s calcium fluorescence; activation, % at 10 µM; 270,000 tested, 0.15% active; in the data active = activation above about 40%;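 note: 0% = vehicle and 100% = reference agonist at the receptor; some compounds past the cut are filed as inactive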
NPYLR7 agonist max-min = recorded beside NPYLR7 agonist, whose call it bears; activation, %; measured here: Max-Min RFU normalised activation; some inactives read as strong as hits;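 span of the calcium signal over five minutes; 0% = vehicle and 100% = native peptide agonist; compound fluorescence can raise it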
Starred values were filed as active, the others as inactive. Not all compounds are listed; rates above refer to the full screens.

(1) Cc1cc(S(=O)(=O)Nc2ccc(S(=O)C(F)(F)F)cc2)sc1C(=O)O (stereo unspecified)
(2) COCCN1CCCC2(CCN(C(=O)c3cc4nc(C)cc(C)n4n3)C2)C1=O (stereo unspecified)
(3) CC(OC(=O)NCCO)C(F)(F)F (stereo unspecified)
(4) CCOC(=O)C1CCCN(C(=O)c2ccc(CSc3nc(C)cc(N4CCN(c5cccc(C(F)(F)F)c5)CC4)n3)o2)C1 (stereo unspecified)
(5) COC(=O)c1ccc2c(c1)CC(CNC(=O)CCSC)O2 (stereo unspecified)
(6) O=C(Nc1ccccc1F)N1CCC2(CC1)SCCN2C(=O)c1cccc(Cl)c1
(7) CCc1nn2c(=O)cc(COC(=O)c3c(C)noc3C)nc2s1
(8) COc1cc(/C=C/c2noc3c(=O)ccccc23)cc(OC)c1OC
compound no.	1	2	3	4	5	6	7	8
NPYLR7 agonist	5.1	5.5	3.4	7.3	23.0	1.2	3.2	-8.8
NPYLR7 agonist max-min	5.0	1.0	39.8	11.4	12.0	2.7	5.1	-11.4

(9) CC(C)C(NC(=O)CCl)c1ccc(F)cc1 (stereo unspecified)
(10) CC(C)OCCCNC(CC(=O)Nc1ccc(O)cc1)C(=O)O (stereo unspecified)
(11) CC(C)CC(NC(=O)c1ccc2c(c1)OCCN2C)c1nnc2n1CCNCC2 (stereo unspecified)
(12) O=C(Cn1nnn(-c2ccccc2Cl)c1=O)Nc1ccc(Cl)cn1
(13) O=C1NC2(CCN(C(=O)Nc3cccc(Cl)c3Cl)CC2)Nc2cc(Cl)ccc21
(14) COc1nc(-c2ccc(Cl)c(Cl)c2)n(-c2ccc(NC(=O)c3ccc(Cl)c(Cl)c3)cc2)n1
(15) CCOC(=O)Cc1cc(=O)n(-c2ccccc2)[nH]1
(16) Cc1c(C(=O)N2CCC3(CCNC(=O)CC3)CC2)cnc2cc(=O)[nH]n12
compound no.	9	10	11	12	13	14	15	16
NPYLR7 agonist	2.6	7.9	-2.3	6.0	1.1	11.4	-3.9	1.8
NPYLR7 agonist max-min	9.1	7.6	8.7	3.1	8.4	11.5	-9.0	0.1

(17) Cc1ccc(NCCCNC(=O)c2ccc(=O)n(C)c2)nc1
(18) CN(CC[C@H]1CN(C(=O)N2CCOCC2)CC[C@H]1CC(=O)O)c1ccccc1
(19) COc1cc(OC)nc(C(NC(=O)C2CCN(Cc3ccc(Oc4ccccc4)cc3)CC2)c2ccc(F)cc2)n1 (stereo unspecified)
(20) O=C(COc1cccc2cccnc12)Nc1ccc(Cl)c(S(=O)(=O)N2CCOCC2)c1
(21) O=C(OCc1nc(-c2cccc(C(F)(F)F)c2)no1)C1CSCCS1 (stereo unspecified)
(22) O=c1c2ccc(Cl)cc2ncn1CC(O)COCc1cccs1 (stereo unspecified)
(23) Cc1nc(C(=O)N2CC[C@@H](c3ccc4ccccc4c3)[C@H](O)C2)c(C)o1
(24) Cc1nc(C)n(CCNC(=O)c2cn(-c3ccccc3)nn2)n1
compound no.	17	18	19	20	21	22	23	24
NPYLR7 agonist	5.2	-7.5	-6.5	-0.2	5.8	10.6	1.8	-4.1
NPYLR7 agonist max-min	4.2	-15.9	-1.1	14.9	1.4	5.8	0.3	-8.5

(25) Cc1cc(=O)n(CC(=O)NCc2ccccc2)c(-n2nc(C)cc2C)n1
(26) CC(C)c1nccc(C2CC(=O)Nc3c2c(-c2cccnc2)nn3C)n1 (stereo unspecified)
(27) CC1CCN(c2nc3c(c(=O)[nH]c(=O)n3C)n2CCCSc2ncccn2)CC1
(28) CCOC(=O)CCCSc1nnc(NC(=O)C2CC2)s1
(29) CCOc1ccccc1C1NC(=O)NC(C)=C1C(=O)OCCSCC (stereo unspecified)
(30) O=c1c2cn[nH]c2nc(SCc2cc(=O)n3cc(Br)ccc3n2)n1-c1ccc(Br)cc1
(31) Cc1ccc(NC(=O)CN2CCCC(C(=O)N(C)C)C2)c(Cl)c1 (stereo unspecified)
(32) CC(C)COC1CCN(C(=O)CCN2CCOC2=O)CC1
compound no.	25	26	27	28	29	30	31	32
NPYLR7 agonist	8.5	18.0	-9.1	-1.7	-6.0	7.8	-27.4	2.8
NPYLR7 agonist max-min	3.2	4.2	14.0	12.0	-9.2	3.0	-29.0	1.4

(33) Cc1c(Cl)cccc1N=C1NN=C(c2c(N)n(C)c(=O)[nH]c2=O)CS1
(34) C=CCN(Cc1ccc(C)s1)C(=O)c1ccc(-c2nnn(C)n2)cc1
(35) Cc1ccc(OC(=O)NC2(C(F)(F)F)OCCO2)cc1
(36) CCCOc1ccccc1C1C(C(=O)OCc2ccccc2)=C(C)NC2=C1C(=O)CCC2 (stereo unspecified)
(37) COc1ccc(NC(=O)C2(C)CCN2CCOc2ccccc2)cc1OC (stereo unspecified)
(38) CC(C)c1ccc(O)c(NC(=S)NC(=O)c2cncc(Br)c2)c1
(39) COc1cccc(C(=O)N(CC(=O)N2c3ccccc3-n3cccc3C2c2cccc(Cl)c2)C(C)C)c1 (stereo unspecified)
(40) O=C1CSC(c2cccnc2)N1c1ccc(F)c(Cl)c1 (stereo unspecified)
compound no.	33	34	35	36	37	38	39	40
NPYLR7 agonist	-9.7	-4.7	3.8	-2.7	-1.0	1.2	9.1	-4.7
NPYLR7 agonist max-min	-8.2	-5.5	1.2	-7.1	-2.4	0.3	3.3	-11.5

(41) CC(C)N(CCN1CCCCCC1)C(=O)c1ccc(C2CCCN2)s1 (stereo unspecified)
(42) CCOC(=O)CNC(=O)N(CC(=O)N(Cc1cccn1Cc1ccc(Br)cc1)C1CCCCC1)C(C)C
(43) Cc1cc(NC(=O)N2CCc3ccc(Cl)cc32)n(C(C)(C)C)n1
(44) CN(Cc1cc(C(C)(C)C)n[nH]1)C(=O)c1cccc(-n2cnnc2)c1
(45) CC(=O)Nc1ccc(SCc2csc(-c3ccc(Cl)cc3)n2)cc1
(46) Cc1c(NC(=O)C(C)OC(=O)c2ccccc2F)c(=O)n(-c2ccccc2)n1C (stereo unspecified)
(47) CC1(C)COC(CCOC(=O)N2CCC(n3c(=O)[nH]c4ccccc43)CC2)OC1
(48) CN1CCN(C(=O)c2ccc3c(c2)CCO3)CC1=O
compound no.	41	42	43	44	45	46	47	48
NPYLR7 agonist	9.3	-8.4	0.2	3.0	13.9	0.9	-11.9	0.4
NPYLR7 agonist max-min	-4.6	-10.4	2.1	2.7	17.5	0.1	-16.8	-3.0

(49) COc1ccccc1CCNC(=O)c1ccccc1N1CCC(NC(=O)c2cccc(F)c2)CC1
(50) O=C(c1ccc(Cl)cc1)N1CCCC(OCc2cccc(OC(F)(F)F)c2)C1 (stereo unspecified)
(51) COc1ccc(OC)c(NC(=O)C2(C)CCN2C(=O)Cc2ccc(C(C)(C)C)cc2)c1 (stereo unspecified)
(52) CC1CN(c2cc(Cl)nc(SCC(=O)N3CC4(C)CC3CC(C)(C)C4)n2)CCN1C(=O)C1CC1 (stereo unspecified)
(53) O=C(CCOc1ccccc1)NC1CC(=O)N(C2Cc3ccccc3C2)C1 (stereo unspecified)
(54) O=C(Cn1cccn1)N1CCOC(CC2CCCCC2)C1 (stereo unspecified)
(55) Cc1ccc2nc(SCC(=O)NCc3ccccc3Cl)nc(=O)n2c1
(56) Cc1ccc(C)c(SC2CCCCNC2=O)c1 (stereo unspecified)
compound no.	49	50	51	52	53	54	55	56
NPYLR7 agonist	-3.1	-3.6	-2.3	3.6	0.8	20.2	6.2	3.9
NPYLR7 agonist max-min	1.2	-0.1	0.0	13.0	-2.4	7.4	2.4	4.8

(57) COc1cccc(CC2CN(C(=O)CCc3ccccc3C)CCO2)c1 (stereo unspecified)
(58) COc1ccc(S(=O)(=O)N(CCN2CCOCC2)Cc2nccn2Cc2c(C)cc(C)cc2C)cc1
(59) CCOCCOCN(C#N)c1nc(OC)nc(N(C)C)n1
(60) COCCN(CC(=O)N(Cc1cccn1Cc1cccc(C)c1)C(C)(C)C)C(=O)C1CCCCC1
(61) CN(CC(=O)Nc1ccc(S(=O)(=O)N2CCCC2)cc1)Cc1ccc(Br)cc1
(62) CN=c1scc(-c2cc(OC)ccc2OC)n1N=Cc1ccc(O)cc1
(63) Cc1[nH]c2c(c1C(=O)N1CCCC(O)(CO)CC1)C(=O)CCC2 (stereo unspecified)
(64) CCOC(=O)C1=C(C)N=c2s/c(=C\c3ccc(OC)cc3)c(=O)n2C1c1ccc(OC)c(OC)c1 (stereo unspecified)
compound no.	57	58	59	60	61	62	63	64
NPYLR7 agonist	6.4	22.0	1.1	-7.3	-4.8	-20.1	4.6	-6.1
NPYLR7 agonist max-min	1.2	27.4	-1.7	-2.3	-4.4	-27.1	3.5	-14.4

(65) C=Cc1ccc(CN2C(=O)C(C)(C)ON=C2c2ccco2)cc1
(66) CN(C)c1ccc(NC(=O)C2CCC2)cc1CN(Cc1ccc(F)cc1)S(=O)(=O)c1cccc(Cl)c1
(67) O=S(=O)(NC1CCCC1)c1ccc(Cl)c(C(F)(F)F)c1
(68) CNc1nc2cnc(Nc3ccncc3)cc2n1-c1ccccc1
(69) S=c1[nH]nc(Cc2cccs2)n1C1CCCCC1
(70) CCCCCCCCS(=O)(=O)N1CCCN(c2nc(Cc3ccc(C)cc3)ns2)CC1
(71) CCC(C)Sc1nc2c(c(=O)n1-c1ccc(C)cc1)SCC2 (stereo unspecified)
(72) Cc1ccc(N2C(=O)CSC2c2ccc(NC(=O)c3ccco3)cc2)cc1F (stereo unspecified)
compound no.	65	66	67	68	69	70	71	72
NPYLR7 agonist	6.6	-0.1	1.8	10.5	25.5	21.3	-1.7	-1.8
NPYLR7 agonist max-min	-1.3	0.6	1.8	-3.2	18.3	24.8	-1.6	7.6

(73) CCCCN(Cc1nc2ccccc2[nH]1)Cc1ccco1
(74) N#Cc1cnc(SC2CCCC2)nc1N
(75) CCCc1[nH]n(-c2ccc(F)cc2)c(=O)c1C1=C([n+]2cccc(C)c2)C(=O)N(C(C)C)C1=O
(76) Cc1[nH]cnc1CN(C)Cc1cnn(-c2ccc(F)cc2)c1
(77) Cc1noc(C)c1COC(=O)Cn1c(=O)n(C)c2ccccc21
(78) CCn1c(C2CCCN(C(=O)c3cccc4[nH]c(C)nc34)C2)nn(C)c1=O (stereo unspecified)
(79) CCn1c(SCC(=O)NN=Cc2cccnc2)nnc1-c1ccc(Cl)cc1
(80) O=C(NCCN1C(=O)CCC1=O)N1CCN(C(=O)c2ccsc2)CC1
compound no.	73	74	75	76	77	78	79	80
NPYLR7 agonist	3.0	9.0	-3.9	1.5	2.8	3.2	-7.5	-0.1
NPYLR7 agonist max-min	-0.7	644.0	3.6	1.1	-1.9	2.6	-12.7	-3.2

(81) Oc1oc(-c2ccc(Br)cc2)nc1C=Nc1ccc(Cl)cc1Cl
(82) Cc1ccc(NC2CCCN(C(=O)CCCn3cnnn3)C2)cc1C (stereo unspecified)
(83) O=C(OCC(=O)N1CCN(S(=O)(=O)c2ccc(Cl)cc2)CC1)c1cn[nH]c1-c1ccccc1
(84) Cc1ccc(C(=O)Nc2ccc(Br)cc2)cc1S(=O)(=O)Nc1ccccn1
(85) CC(=O)Nc1cncc(-c2ccccc2C(F)(F)F)n1
(86) CCCCN1N=C(c2ccc(F)cc2)Cn2c1nc1c2c(=O)n(C)c(=O)n1C
(87) O=C(c1cc2n(n1)CCN(Cc1cccc(C(F)(F)F)c1)C2=O)N1CCN(c2cccc(Cl)c2)CC1
(88) O=C(NNC(=O)C1CCC(=O)N(Cc2ccccc2)C1c1ccccc1)C1CC1 (stereo unspecified)
(89) COc1ccc(-c2n[nH]c(=S)n2N=Cc2cc(Br)ccc2F)cc1
(90) COc1ccccc1-n1c(SCc2nc(C(=O)Nc3ccc(C)c(C)c3)cs2)nnc1-c1ccncc1
compound no.	81	82	83	84	85	86	87	88	89	90
NPYLR7 agonist	-0.4	1.9	-1.7	-16.7	3.6	6.4	-4.1	6.6	12.1	13.3
NPYLR7 agonist max-min	-5.2	-3.3	3.5	-22.4	0.4	2.0	1.6	3.1	12.9	20.1

In the list so far, these contain a CF3 group.
(1) Cc1cc(S(=O)(=O)Nc2ccc(S(=O)C(F)(F)F)cc2)sc1C(=O)O (stereo unspecified)
(3) CC(OC(=O)NCCO)C(F)(F)F (stereo unspecified)
(4) CCOC(=O)C1CCCN(C(=O)c2ccc(CSc3nc(C)cc(N4CCN(c5cccc(C(F)(F)F)c5)CC4)n3)o2)C1 (stereo unspecified)
(21) O=C(OCc1nc(-c2cccc(C(F)(F)F)c2)no1)C1CSCCS1 (stereo unspecified)
(35) Cc1ccc(OC(=O)NC2(C(F)(F)F)OCCO2)cc1
(50) O=C(c1ccc(Cl)cc1)N1CCCC(OCc2cccc(OC(F)(F)F)c2)C1 (stereo unspecified)
(67) O=S(=O)(NC1CCCC1)c1ccc(Cl)c(C(F)(F)F)c1
(85) CC(=O)Nc1cncc(-c2ccccc2C(F)(F)F)n1
(87) O=C(c1cc2n(n1)CCN(Cc1cccc(C(F)(F)F)c1)C2=O)N1CCN(c2cccc(Cl)c2)CC1
compound no.	1	3	4	21	35	50	67	85	87
NPYLR7 agonist	5.1	3.4	7.3	5.8	3.8	-3.6	1.8	3.6	-4.1
NPYLR7 agonist max-min	5.0	39.8	11.4	1.4	1.2	-0.1	1.8	0.4	1.6
